High-throughput results from PubChem.
MT1-MMP promoter – inhibitors of MT1-MMP promoter transcription, cell-based, luciferase reporter, luminescence (AID 618) | MT1-MMP promoter luciferase reporter cells, luminescence | calls from a first round at 10 µM; hits with a dose series show EC50 in µM | 87,000 tested, 0.62% active;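 active means over half of the reporter light lost at 10 µM or EC50 under 50 µM; inactive means the rest and hits that failed the dose series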;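 further: actives suppress MT1-MMP promoter-driven transcription so potencies describe inhibitors; HT1080 fibrosarcoma cells; overnight exposure; toxic or luciferase-blocking compounds were not removed from the actives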
WNV NS2B-NS3 inh – blocks West Nile virus NS2B-NS3 protease activity | 65,000 tested, 0.18% active | z-score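 (tested at a level between 10 and 100 µM)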 | AID 577 | WNV NS2B-NS3 protease, fluorogenic substrate Ex360/Em465; stronger effect = lower value;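 active means z-score at -3 or under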;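 further: score is relative to mean and spread of the compound wells of a plate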
Target sequence (P06935 1371-1501 limits assumed): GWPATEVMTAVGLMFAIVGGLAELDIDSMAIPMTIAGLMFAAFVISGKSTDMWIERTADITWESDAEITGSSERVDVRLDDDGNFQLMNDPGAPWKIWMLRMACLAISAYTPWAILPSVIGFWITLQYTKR
Target sequence (P06935 1502-1679 limits assumed): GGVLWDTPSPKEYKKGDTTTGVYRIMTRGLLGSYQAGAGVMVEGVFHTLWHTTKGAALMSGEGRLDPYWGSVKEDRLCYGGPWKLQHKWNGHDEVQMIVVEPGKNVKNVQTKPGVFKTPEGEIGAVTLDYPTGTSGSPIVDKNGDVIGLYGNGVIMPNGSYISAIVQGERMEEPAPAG
Hsc70 ATP site – small molecules displacing fluorescent ligand from Hsc70 – biochemical, fluorescence polarization, primary screen (AID 568) | 83,000 tested, under 10 active | displacement, % at 20 µM; hits with a dose series show IC50 in µM | Hsc70 fluorescence polarization, probe displacement; higher % means a stronger effect; strong numbers were not always called active;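 active means displacement above 50% without optical interference and an IC50 on retest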;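 further: ATPase domain with a fluorescein-tagged ATP probe; 0% = vehicle and 100% = excess ADP; read after one hour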
Starred values were filed as active, the others as inactive.

For CC(C)C(=O)NC(C)C(c1cccs1)N1CCN(c2ccccc2)CC1 (stereo not given) the results were MT1-MMP promoter inactive, WNV NS2B-NS3 inh -0.08 and Hsc70 ATP site 1.8%.
For CC(=O)Nc1cccc(NC(=O)Nc2ccc(C(C)=O)cc2)c1 the results were MT1-MMP promoter inactive, WNV NS2B-NS3 inh -0.29 and Hsc70 ATP site 1.3%.
For COC(=O)C1=C(N)Oc2cc(C)n(CC3CCCO3)c(=O)c2C1c1ccccc1OC (stereo not given) the results were MT1-MMP promoter inactive, WNV NS2B-NS3 inh -0.91 and Hsc70 ATP site 2.5%.
COc1ccc(C2=NNC(c3cccs3)=Nc3ccc(OC)cc32)cc1 was read as MT1-MMP promoter inactive and Hsc70 ATP site 32.2%.
`O=CN1CCN(C2CC(=O)N(c3ccc(Br)cc3)C2=O)CC1` (stereo not given) gave MT1-MMP promoter inactive, WNV NS2B-NS3 inh -0.97 and Hsc70 ATP site 2.2%.
For CN(c1ccccc1C(=O)N1CCOCC1)S(C)(=O)=O the results were MT1-MMP promoter inactive, WNV NS2B-NS3 inh -0.11 and Hsc70 ATP site 3.1%.
For CCOC(=O)Cc1csc(NC(=O)COc2ccc3ccccc3c2)n1 the results were MT1-MMP promoter inactive and Hsc70 ATP site -5.0%.
`Cc1ccccc1C(=O)N1CCCN(C(=O)c2ccccc2C)CC1` gave MT1-MMP promoter inactive, WNV NS2B-NS3 inh -0.88 and Hsc70 ATP site -1.2%.
For C#CCN(C)Cc1ccccc1 the results were MT1-MMP promoter inactive, WNV NS2B-NS3 inh 0.4 and Hsc70 ATP site 1.0%.
Screening O=C(O)Cc1ccc2[nH]c3ccc(CC(=O)O)cc3c2c1 returned MT1-MMP promoter inactive, WNV NS2B-NS3 inh -0.56 and Hsc70 ATP site -1.0%.
`COc1cc2c(cc1OC)C(c1ccc3c(c1)OCO3)CC(=O)N2` (stereo not given) gave MT1-MMP promoter inactive, WNV NS2B-NS3 inh -0.87 and Hsc70 ATP site 1.8%.
Screening Nn1cnnc1SCC(=O)Nc1ccc(C2CCCCC2)cc1 returned MT1-MMP promoter inactive, WNV NS2B-NS3 inh 2.26 and Hsc70 ATP site -8.0%.
CCOc1cc(C2C(C#N)=C(N)Oc3n[nH]c(-c4ccccc4)c32)ccc1O (stereo not given) was read as MT1-MMP promoter inactive, WNV NS2B-NS3 inh -0.81 and Hsc70 ATP site 1.9%.
`C/C=C/c1ccc(OCCCNC(C)CC)c(OC)c1` (stereo not given) gave MT1-MMP promoter inactive and Hsc70 ATP site -0.2%.
COc1ccc(C(=O)OC2CCN(C)CC2)cc1 was read as MT1-MMP promoter inactive and Hsc70 ATP site -3.2%.
CC(C(=O)Nc1ccc(S(=O)(=O)N2CCOCC2)cc1)N(c1ccccc1)S(C)(=O)=O (stereo not given) was read as MT1-MMP promoter inactive, WNV NS2B-NS3 inh 1.21 and Hsc70 ATP site -3.5%.
COCCn1nnnc1C(C(C)C)N1CCOCC1 (stereo not given) was read as MT1-MMP promoter inactive, WNV NS2B-NS3 inh 0.41 and Hsc70 ATP site -1.5%.
Screening CCOc1cc(C(=S)N2CCN(C)CC2)ccc1OCC(=O)N1CCOCC1 returned MT1-MMP promoter inactive, WNV NS2B-NS3 inh 0.91 and Hsc70 ATP site -10.6%.
For COC(=O)c1cc(NC(=O)c2ccoc2C)cc(C(=O)OC)c1 the results were MT1-MMP promoter inactive, WNV NS2B-NS3 inh 0.42 and Hsc70 ATP site 6.2%.
For Nc1nonc1C(=Nc1ccccc1)NO the results were MT1-MMP promoter inactive, WNV NS2B-NS3 inh -0.17 and Hsc70 ATP site 3.2%.
For Cc1ccc(C2C(C#N)=C(N)Oc3n[nH]c(C)c32)cc1 (stereo not given) the results were MT1-MMP promoter inactive, WNV NS2B-NS3 inh -0.09 and Hsc70 ATP site -10.2%.
For O=C(c1ccc2c(c1)OCO2)N1CCN(c2ccccc2F)CC1 the results were MT1-MMP promoter inactive, WNV NS2B-NS3 inh 0.24 and Hsc70 ATP site -2.0%.
`COC(=O)c1cccc(NC(=O)Cn2cnc3ccccc3c2=O)c1` gave MT1-MMP promoter inactive, WNV NS2B-NS3 inh 1.03 and Hsc70 ATP site 2.6%.
CCOC(=O)c1ccc(NC(=O)CCc2nc(-c3ccc(C)cc3)no2)cc1 was read as MT1-MMP promoter inactive, WNV NS2B-NS3 inh 0.18 and Hsc70 ATP site 0.9%.
For CCN(CC)C(=O)CSCC(=O)Nc1ccccc1 the results were MT1-MMP promoter inactive, WNV NS2B-NS3 inh -1.06 and Hsc70 ATP site 0.0%.
For Cc1nn(C)cc1CN(C)C(=O)c1nn2c(c1Cl)NC(c1cccs1)CC2C(F)(F)F (stereo not given) the results were MT1-MMP promoter inactive, WNV NS2B-NS3 inh -1.29 and Hsc70 ATP site 1.9%.
Screening N#Cc1c(N)nc2c(c1-c1ccccc1)CCCC2 returned MT1-MMP promoter inactive, WNV NS2B-NS3 inh -0.38 and Hsc70 ATP site -1.8%.
For COc1ccccc1NC(=O)N1CCCC1C(=O)NCc1ccccc1F (stereo not given) the results were MT1-MMP promoter inactive, WNV NS2B-NS3 inh -0.18 and Hsc70 ATP site 6.0%.
For Nc1ccc2oc(-c3cccc(Br)c3)nc2c1 the results were MT1-MMP promoter inactive, WNV NS2B-NS3 inh 0.6 and Hsc70 ATP site 5.6%.
CCc1cc2cc(C(=O)Nc3ccc(C)cc3)sc2s1 was read as MT1-MMP promoter inactive and Hsc70 ATP site -1.8%.

Ordered by formula weight (low to high): 13 of the compounds above
For Nc1nonc1C(=Nc1ccccc1)NO the results were MT1-MMP promoter inactive, WNV NS2B-NS3 inh -0.17 and Hsc70 ATP site 3.2%.
Screening N#Cc1c(N)nc2c(c1-c1ccccc1)CCCC2 returned MT1-MMP promoter inactive, WNV NS2B-NS3 inh -0.38 and Hsc70 ATP site -1.8%.
For Cc1ccc(C2C(C#N)=C(N)Oc3n[nH]c(C)c32)cc1 (stereo not given) the results were MT1-MMP promoter inactive, WNV NS2B-NS3 inh -0.09 and Hsc70 ATP site -10.2%.
COCCn1nnnc1C(C(C)C)N1CCOCC1 (stereo not given) was read as MT1-MMP promoter inactive, WNV NS2B-NS3 inh 0.41 and Hsc70 ATP site -1.5%.
For Nc1ccc2oc(-c3cccc(Br)c3)nc2c1 the results were MT1-MMP promoter inactive, WNV NS2B-NS3 inh 0.6 and Hsc70 ATP site 5.6%.
CCc1cc2cc(C(=O)Nc3ccc(C)cc3)sc2s1 was read as MT1-MMP promoter inactive and Hsc70 ATP site -1.8%.
For O=C(c1ccc2c(c1)OCO2)N1CCN(c2ccccc2F)CC1 the results were MT1-MMP promoter inactive, WNV NS2B-NS3 inh 0.24 and Hsc70 ATP site -2.0%.
`COC(=O)c1cccc(NC(=O)Cn2cnc3ccccc3c2=O)c1` gave MT1-MMP promoter inactive, WNV NS2B-NS3 inh 1.03 and Hsc70 ATP site 2.6%.
For COc1ccccc1NC(=O)N1CCCC1C(=O)NCc1ccccc1F (stereo not given) the results were MT1-MMP promoter inactive, WNV NS2B-NS3 inh -0.18 and Hsc70 ATP site 6.0%.
CCOC(=O)c1ccc(NC(=O)CCc2nc(-c3ccc(C)cc3)no2)cc1 was read as MT1-MMP promoter inactive, WNV NS2B-NS3 inh 0.18 and Hsc70 ATP site 0.9%.
Screening CCOc1cc(C(=S)N2CCN(C)CC2)ccc1OCC(=O)N1CCOCC1 returned MT1-MMP promoter inactive, WNV NS2B-NS3 inh 0.91 and Hsc70 ATP site -10.6%.
CC(C(=O)Nc1ccc(S(=O)(=O)N2CCOCC2)cc1)N(c1ccccc1)S(C)(=O)=O (stereo not given) was read as MT1-MMP promoter inactive, WNV NS2B-NS3 inh 1.21 and Hsc70 ATP site -3.5%.
For Cc1nn(C)cc1CN(C)C(=O)c1nn2c(c1Cl)NC(c1cccs1)CC2C(F)(F)F (stereo not given) the results were MT1-MMP promoter inactive, WNV NS2B-NS3 inh -1.29 and Hsc70 ATP site 1.9%.

(more compounds)
c1ccc(CC2CCN(c3nc(N4CCOCC4)nc(N4CCOCC4)n3)CC2)cc1 was read as MT1-MMP promoter inactive, WNV NS2B-NS3 inh 0.38 and Hsc70 ATP site 0.9%.
`COc1ccc(-n2c(C)csc2=S)cc1` gave MT1-MMP promoter inactive and Hsc70 ATP site 1.1%.
Screening Cc1ccc2cc(CCNC(=O)c3ccc(Br)o3)c(=O)[nH]c2c1 returned MT1-MMP promoter inactive, WNV NS2B-NS3 inh 0.25 and Hsc70 ATP site -2.8%.
`O=C(Nc1cccc(C(F)(F)F)c1)c1ccc(Cn2cc(Br)cn2)o1` gave MT1-MMP promoter inactive and Hsc70 ATP site 2.2%.
COc1cccc(-n2ccnc2SCC(=O)Nc2cc(OC)ccc2OC)c1 was read as MT1-MMP promoter inactive, WNV NS2B-NS3 inh -2.82 and Hsc70 ATP site -2.8%.
CCOc1nc(CC)nc(NC(=O)NS(=O)(=O)c2ccccc2Cl)n1 was read as MT1-MMP promoter inactive, WNV NS2B-NS3 inh -0.77 and Hsc70 ATP site 4.5%.
For O=C(CN1CCN(S(=O)(=O)c2ccc3ccccc3c2)CC1)N1CCc2ccccc2C1 the results were MT1-MMP promoter inactive and Hsc70 ATP site -1.1%.
`O=C(Nc1ccc(-c2nc3cccnc3s2)cc1)c1ccc(Br)o1` gave MT1-MMP promoter inactive, WNV NS2B-NS3 inh -0.62 and Hsc70 ATP site -13.7%.
Screening Cc1noc(C)c1COC(=O)CCCOc1ccc(Cl)cc1Cl returned MT1-MMP promoter inactive, WNV NS2B-NS3 inh 0.64 and Hsc70 ATP site -3.4%.
`CC(=O)OC(C(=O)NCS(=O)(=O)c1ccc(C)cc1)c1cccnc1` (stereo not given) gave MT1-MMP promoter inactive, WNV NS2B-NS3 inh 0.57 and Hsc70 ATP site -14.1%.
Screening Cc1ccn2cc(CCNC(=O)CC(C)(C)C)nc2c1 returned MT1-MMP promoter inactive, WNV NS2B-NS3 inh 0.28 and Hsc70 ATP site -1.0%.
CCCc1nc2oc3c(OC)ncnc3c2c2c1COC(C)(C)C2 was read as MT1-MMP promoter inactive and Hsc70 ATP site 5.3%.
`Cc1ccc(-n2nnnc2SCn2nnc3ccccc3c2=O)cc1` gave MT1-MMP promoter inactive and Hsc70 ATP site -2.3%.
`COc1ccc(C2C(=O)N(C3CCCCC3)CC(=O)N2CCc2ccccc2)cc1OC` (stereo not given) gave MT1-MMP promoter inactive, WNV NS2B-NS3 inh 1.15 and Hsc70 ATP site -3.7%.
`COCCn1nnnc1C(c1cccs1)N1CCN(c2ccccc2)CC1` (stereo not given) gave MT1-MMP promoter inactive, WNV NS2B-NS3 inh 0.13 and Hsc70 ATP site 8.0%.
O=C(O)C1CC(=O)N(c2ccc(Br)cc2)C1 (stereo not given) was read as MT1-MMP promoter inactive, WNV NS2B-NS3 inh 0.8 and Hsc70 ATP site -3.0%.
For COc1ccc(CCN2C(=O)CC(C(N)=O)SC2=Nc2ccccc2)cc1OC (stereo not given) the results were MT1-MMP promoter inactive, WNV NS2B-NS3 inh -0.77 and Hsc70 ATP site 29.4%.
CCOC(=O)CN(C(=O)CSc1nnc(CNc2ccc(F)cc2)o1)c1ccccc1 was read as MT1-MMP promoter inactive, WNV NS2B-NS3 inh 0.81 and Hsc70 ATP site -4.1%.
Cc1cccc(NC(=O)N[C@@H](C)C(=O)O)c1 was read as MT1-MMP promoter inactive and Hsc70 ATP site 0.6%.
Screening Cc1cc(NC(=O)CSc2ccc3nnc(-c4ccc(Cl)cc4)n3n2)no1 returned MT1-MMP promoter inactive, WNV NS2B-NS3 inh 0.4 and Hsc70 ATP site -5.9%.
Screening COc1ccc(N2CCN(C(=O)CCCn3c(=S)[nH]c4cc5c(cc4c3=O)OCO5)CC2)cc1 returned MT1-MMP promoter inactive, WNV NS2B-NS3 inh -0.56 and Hsc70 ATP site 0.1%.
`COc1cc(-c2nc(S(=O)(=O)c3ccc(Cl)cc3)c(N(C)C)o2)cc(OC)c1OC` gave MT1-MMP promoter inactive, WNV NS2B-NS3 inh 1.06 and Hsc70 ATP site -0.8%.
`Cc1cccn2c(=O)c3cc(C(=O)NCC4CCCO4)c(=N)n(Cc4cccnc4)c3nc12` (stereo not given) gave MT1-MMP promoter inactive, WNV NS2B-NS3 inh 1.48 and Hsc70 ATP site 11.4%.
`O=S(=O)(Nc1ccc2c(c1)OCO2)c1ccc(Br)s1` gave MT1-MMP promoter inactive, WNV NS2B-NS3 inh -0.61 and Hsc70 ATP site -7.1%.
`COc1cc(NC(=O)CSc2nnc(C)s2)cc(OC)c1OC` gave MT1-MMP promoter inactive, WNV NS2B-NS3 inh 1.33 and Hsc70 ATP site 2.6%.
For CCN1C(=O)CC(N2CCN(CC(=O)NC(C)C)CC2)C1=O (stereo not given) the results were MT1-MMP promoter inactive and Hsc70 ATP site 3.5%.
CC(C)CC(=O)Nc1ccc(C(=O)COc2ccc(-c3nnco3)cc2)cc1 was read as MT1-MMP promoter inactive, WNV NS2B-NS3 inh 0.06 and Hsc70 ATP site -9.9%.
c1ccc(CCNc2c3c(nc4ncnn24)CCC3)cc1 was read as MT1-MMP promoter inactive, WNV NS2B-NS3 inh 1.25 and Hsc70 ATP site -3.2%.
For Cc1ccc(CN(CC(=O)NC2CCCC2)C(=O)CSc2nnc(COc3ccccc3)o2)cc1 the results were MT1-MMP promoter inactive and Hsc70 ATP site -3.0%.
CCOc1ccc(NC(=O)C2CC(=O)NC(N3CCc4ccccc43)=N2)cc1 (stereo not given) was read as MT1-MMP promoter inactive, WNV NS2B-NS3 inh 0.41 and Hsc70 ATP site -2.8%.
